# Compound activity: PubChem, National Center for Advancing Translational Sciences (NCATS)
# PK Bst: pyruvate kinase (B. stearothermophilus) modulation. partly purified Bacillus stearothermophilus pyruvate kinase, luminescence ATP production; ribose 5-phosphate activator present at AC10. 51,000 tested, 1.2% active. Potency, µM. AID 361; in the data active means potency below about 11 µM; inconclusive means mostly about 12 µM to 25 µM; inactive means weaker than that;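 the screen sought inhibitors and activators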;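 further: potency means the concentration at half of the fitted maximal effect; scaled between full activation by ribose 5 phosphate and full inhibition by luteolin; about four in five hits inhibit and the cells do not say which; series up to 57 µM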
# TsaE inh: YjeE (TsaE) inhibition, E. coli | purified YjeE, fluorescence polarisation of a bound ADP probe | Potency, µM | 71,000 tested, 0.05% active; active = well fitted falling curve; inconclusive = weaker or top-dose-only fall, or a rising curve; inactive = flat or poorly fitted curve;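 further: top concentration of the series not given in the record; excess ADP was the control for the full effect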
#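 Purified YjeE (10 uM) with BODIPY Texas Red-labeled ADP probe (2 uM); compounds pin-transferred, 15 min at room temperature. Binding inhibition read as decreased fluorescence polarization; ADP titration as control.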
# Numbers without * were called inactive; i = inactive; ? = inconclusive; nt = no result given. Only part of the results is shown, so the mix of outcomes need not match the whole.
SMILES,PK Bst,TsaE inh
Cc1ccc(S(=O)(=O)NC(CC(=O)N2CCc3ccccc32)c2ccco2)cc1 (centres undefined),nt,i
C[C@@H]1[C@H](O)[C@@H](C)/C=C/C=C/C=C/C=C/C=C/C=C/C=C/[C@H](O[C@@H]2O[C@H](C)[C@@H](O)[C@H](N)[C@@H]2O)C[C@@H]2O[C@](O)(C[C@@H](O)C[C@@H](O)[C@H](O)CC[C@@H](O)C[C@@H](O)CC(=O)O[C@H]1C)C[C@H](O)[C@H]2C(=O)O,nt,i
O=C(NCc1ccc2c(c1)OCO2)c1ccc(S(=O)(=O)NCC2CCCO2)cc1 (centres undefined),>57,i
CCS(=O)(=O)NCCc1ccc(OC)c(OC)c1,>57,i
COc1ccccc1N1CC(C(=O)OC(C)C(=O)N2CCCc3ccccc32)CC1=O (centres undefined),>57,i
Cn1cc(C(=O)NC2CCCCCC2)c(=O)c2cc(S(=O)(=O)N3CCCC3)ccc21,>57,i
CCCCOC(=O)Nc1ccc(OC)cc1S(=O)(=O)N1CCOCC1,>57,i
Cc1ccccc1-n1c(=O)c2ccccc2n2nnnc12,>57,i
CCS(=O)(=O)N1CCC(C(=O)NCc2ccccn2)CC1,>57,i
Cc1oc(-c2ccccc2)[n+]([O-])c1C,>57,i
CCC(=O)N1CCN(c2ccccc2NC(=O)Cc2ccc(Cl)cc2)CC1,>57,i
COc1cc(NC(=O)C(C)Oc2ccccc2)cc(OC)c1 (centres undefined),>57,i
COC(=O)c1ccn(C(=O)c2ccc(Cl)cc2)n1,>26,nt
CC(C(=O)NC1CCCCCC1)N(c1ccccc1)S(C)(=O)=O (centres undefined),>57,i
COc1ccc(NC(=O)c2ccco2)cc1NC(=O)c1ccco1,>57,i
COc1ccc(-n2c3c(cc(C(=O)N4CCN(CCO)CC4)c2=O)C(=O)CC(C)(C)C3)cc1,nt,i
COc1ccc(CC(=O)OCC(=O)NC(=O)NC2CCCCC2)cc1,>57,i
COc1ccc(OC)c(C(=O)COC(=O)CNC(=O)C2CCCCC2)c1,>57,i
COc1ccc2cc3cc(C(=O)NCCc4ccc(OC)c(OC)c4)oc3nc2c1,>57,i
CCOC(=O)Cc1csc(NC(NC(=O)CC)(C(F)(F)F)C(F)(F)F)n1,nt,i
COC1CCCCC1Nc1cccc(SC)c1 (centres undefined),nt,i
COc1c(N2CCNC(C)C2)c(F)cc2c(=O)c(C(=O)O)cn(C3CC3)c12 (centres undefined),>57,i
O=C(Nc1ccc(-c2nc3ncccc3o2)cc1)c1ccco1,?,i
Cn1c2c(c(=O)n(C)c1=O)C(c1cccc(Br)c1)C1C(=O)c3ccccc3C1=N2 (centres undefined),>57,i
O=S(=O)(Cc1ccccc1Cl)N1CCN(Cc2ccc3c(c2)OCO3)CC1,>57,i
CCOC(=O)c1nc(S(C)(=O)=O)ncc1Cl,>57,i
O=C(c1cccs1)N1CCC(c2nc3c(nnn3Cc3ccccc3)c(=O)[nH]2)CC1,>57,i
CCOC(=O)NC1(C(F)(F)F)C(=O)N(Cc2ccccn2)C2=C1C(=O)CC(C)(C)C2 (centres undefined),>57,i
O=C(NCc1ccc2c(c1)OCO2)c1nnc(Cc2ccc(F)cc2)o1,nt,i
COC(=O)Cc1c(C)nc2nc[nH]n2c1=O,>57,i

# A different layout for some results above:
SMILES	PK Bst	TsaE inh
O=C(Nc1ccc(-c2nc3ncccc3o2)cc1)c1ccco1	?	i
Cn1c2c(c(=O)n(C)c1=O)C(c1cccc(Br)c1)C1C(=O)c3ccccc3C1=N2 (centres undefined)	>57	i

# Later entries.
SMILES,PK Bst,TsaE inh
CCOc1ccc(N2CC(C(=O)OC)CC2=O)cc1 (centres undefined),>57,i
Cc1c(NC(=O)C(C)OC(=O)C(NC(=O)c2ccco2)C(C)C)c(=O)n(-c2ccccc2)n1C (centres undefined),>57,i
CCN(CC)C(=O)CSc1nc2ncc(Br)cc2[nH]1,>57,i
CCOc1ccc(C(=O)OCc2nnc(-c3cccs3)o2)cc1OC,>57,i
Cc1cc(NC(=O)Nc2cccs2)no1,>57,i
O=c1c(CCc2ccccc2)nc2cnc(Oc3ccccc3)nc2n1C1CC1,nt,i
COc1ccc(C(=O)CSc2nnc(-c3cccnc3)n2Cc2ccco2)cc1,>57,i
Cc1ccc(S(=O)(=O)NC2CCOC(C)(C)C2)cc1 (centres undefined),>57,i
COc1cccc(CNn2cnnc2)c1OCc1ccccc1F,>57,i
Cc1ccc(N(CC(=O)NCc2ccco2)S(=O)(=O)c2ccccc2)cc1,nt,i
Cc1ccc(S(=O)(=O)Nc2ccccc2CNc2c(C)n(C)n(-c3ccccc3)c2=O)cc1,>57,i
CS(=O)(=O)N(CC(=O)N1CCCCCC1)c1ccc(Br)cc1,>57,i
Cc1nn(C)c(C)c1CNC(=O)c1cnn2c1NC(c1ccccc1)CC2C(F)(F)F (centres undefined),>57,i
Clc1ccc(CSCc2ccc(Cl)cc2Cl)c(Cl)c1,nt,i
CCOC(=O)N1CCN(C(=O)c2cnc(Nc3ccccc3OC)c3ccccc23)CC1,>57,i
O=C(OCC(=O)N1CCc2ccccc21)c1ccc[n+]([O-])c1,>57,i
CCOC(=O)c1c(C)n(C)c2ccc(OC)c(NC(=O)CN3CCSCC3)c12,>26,nt
CCCn1c(C)nc2c(N3CCN(C)CC3)nc(C)nc21,nt,i
Cc1cc(C)n(CNc2nc(C(F)(F)F)cs2)n1,>57,i
N#Cc1ccccc1-c1ccc2ncnc(NC3CC3)c2c1,nt,i
COc1ccc(NC(=O)Nc2cccc3cccnc23)cc1,nt,i
CC(C)(C)NC(=O)C(c1ccncc1)N(Cc1cccs1)C(=O)Cn1nnc(-c2cccs2)n1 (centres undefined),>57,i
CCN(CC)CCCCCOc1ccccc1OC,nt,i
COc1ccc(C2C=C(c3ccccc3)Nc3nnnn32)cc1 (centres undefined),nt,i
O=C(Cc1ccccc1)N1CCCC(c2nc(-c3cccs3)no2)C1 (centres undefined),>57,i
Cc1nn(C)c(C)c1N=Cc1c(O)ccc2ccccc12,nt,i
C=C(Cl)COC(=O)[C@H]1C2C=CC(C2)C1C(=O)O (some centres undefined),>57,i
CCn1c2ccccc2c2nnc(SCC(=O)NC(CC(C)C)C(=O)OC)nc21 (centres undefined),>57,i
COc1cc2c(cc1O)[C@@H](c1cc(O)c(O)c(OC)c1)[C@@](O)(C(=O)O)[C@@H](CO)[C@@H]2O,nt,i
O=C1c2ccccc2NC(c2cccc(F)c2)N1Cc1ccco1 (centres undefined),>57,i
CCc1nn(CC(=O)NCCCN(CC)Cc2ccccc2)c(=O)c2cc3sccc3n12,>57,i
CCOC(=O)C(NC(=O)Nc1ccc(F)cc1)(OCC)C(F)(F)F (centres undefined),>57,i
O=C(COc1ncnc2sccc12)N1CCc2ccccc2C1,?,i
COC(=O)Nc1ncc(CN2CCc3ccccc3C2)s1,>57,i
CCOC(=O)c1c(N)nn(C(=O)CC)c1-c1ccccc1,>57,i
CCCOC(=O)C1C2C=CC3(CN(c4cccc(Cl)c4)C(=O)C13)O2 (centres undefined),nt,i
Cc1ccc2c(c1)[C@@H]1CN(C)CC[C@@H]1N2S(=O)(=O)c1ccc(F)cc1,>26,nt
Cc1nc(CNS(=O)(=O)c2ccccc2F)cs1,nt,i
O=C1CCc2cc(S(=O)(=O)NC(C(=O)NCc3cccnc3)c3ccccc3)ccc2N1 (centres undefined),nt,i
O=S(=O)(c1ccc(Br)s1)N1CCCCC1,>57,i
CCn1cc(C(=O)N2CCCCC2)c(=O)c2cc(S(=O)(=O)N3CCC(C)CC3)ccc21,>57,i
O=C(NCc1ccco1)c1cccc(S(=O)(=O)N2CCOCC2)c1,nt,i
COC(=O)c1ccc(Cn2nc(C)c(Br)c2C)cc1,i,i
Cc1ccc(S(=O)(=O)n2ccnc2)cc1C,nt,i
Cc1cc(C)n(-c2nc3ccccc3n3cnnc23)n1,>57,i
COc1ccc(C2CC(C(F)(F)F)n3ncc(C(=O)O)c3N2)cc1OC (centres undefined),nt,i
COc1ccc(Cn2nnnc2C(c2ccccn2)N2CCN(c3cc(Cl)ccc3C)CC2)cc1 (centres undefined),>57,i
N#Cc1nc(-c2ccc(OCc3ccccc3)cc2)oc1NCCN1CCOCC1,4.5*,i
CCOC(=O)Cc1cnc(NC(=O)Cn2nnc(-c3ccc(OCC)cc3)n2)s1,>57,i
O=S(=O)(c1ccc(S(=O)(=O)N2CCCC2)cc1)N1CCCCCC1,>57,i

# 6 compounds drawn at random from those above, as already listed:
SMILES,PK Bst,TsaE inh
N#Cc1nc(-c2ccc(OCc3ccccc3)cc2)oc1NCCN1CCOCC1,4.5*,i
O=C(NCc1ccco1)c1cccc(S(=O)(=O)N2CCOCC2)c1,nt,i
CCn1cc(C(=O)N2CCCCC2)c(=O)c2cc(S(=O)(=O)N3CCC(C)CC3)ccc21,>57,i
COc1ccc(C2CC(C(F)(F)F)n3ncc(C(=O)O)c3N2)cc1OC (centres undefined),nt,i
Cc1cc(C)n(-c2nc3ccccc3n3cnnc23)n1,>57,i
O=S(=O)(c1ccc(S(=O)(=O)N2CCCC2)cc1)N1CCCCCC1,>57,i

# Additional structures follow.
SMILES,PK Bst,TsaE inh
COC(=O)c1ccccc1NC(=O)C1CCN(S(=O)(=O)c2cc(C)ccc2OC)CC1,>11,i
CCCn1c(SCc2nc(-c3cccs3)no2)nnc1-c1ccncc1,>57,i
CC(=O)Nc1nc(=O)c2ccccc2s1,nt,i
Cn1c(=O)[nH]c(=O)c2c1nc(CN1CCOCC1)n2CCCc1ccccc1,nt,i
COCCn1c(SCC(=O)Nc2nnc(C)s2)nnc1-c1cc2ccccc2cc1O,i,i
O=C(O)CCC(=O)Nc1ccc(N2CCCCCC2)cc1,nt,i
CC(C)Cn1c(-c2ccc(Cl)cc2)cnc1SCC(=O)N1CCOCC1,>57,i
Nc1nc(C2CC2)c(Sc2sc(N)nc2C2CC2)s1,>57,i
Cc1ccc(OCC(=O)Nc2ccc(O)c(-c3nc4ccccc4o3)c2)cc1,nt,i
Cc1nc2ccc(S(=O)(=O)NCC(=O)N3CCOCC3)cc2s1,>57,i
CCC(=O)Nc1ccccc1-c1nnn(CC(=O)N2c3ccccc3CC2C)n1 (centres undefined),>57,i
CCOC(=O)COc1ccc(S(=O)(=O)N2CCN(c3ccccc3F)CC2)cc1,>57,i
CCOc1ccc(C(=O)NCCCN(CC)CC)cc1,nt,i
CC(C)=CCC1=C(OCC(=O)O)C(=O)c2ccccc2C1=O,nt,i
COc1ccccc1N1CCN(c2nc(N)c(C#N)c(CC#N)c2C#N)CC1,>57,i
CCOc1ccc2[nH]c(=O)c(C(c3nnnn3CC3CCCO3)N3CCc4ccccc4C3)cc2c1 (centres undefined),>57,i
CCOC(=O)c1ccc(NC(=O)C23CCC(C)(C(=O)O2)C3(C)C)cc1 (centres undefined),nt,i
CCOc1ccc(-c2nc(-c3ccccc3C)no2)cc1,8*,i
c1ccc(-c2nnc3sc(CN4CCc5ccccc54)cn23)cc1,>57,i
O=C(COc1cccc(C(F)(F)F)c1)NCCCN1CCCC1=O,>57,i
Cc1cc(NC(=O)c2ccccc2)ncc1NC(=O)c1ccco1,i,i
Cn1c(=O)c2c(nc(Oc3ccc4c(c3)OCO4)n2Cc2ccc(Br)cc2)n(C)c1=O,>26,nt
Cc1cc(NC(=O)c2c(F)c(F)c(F)c(F)c2F)no1,>57,i
NC(=O)c1cc(-c2ccccc2)sc1NC(=O)Cc1ccc(S(=O)(=O)N2CCOCC2)s1,>57,i
CCCCCc1c(C)nc(Nc2ccc(F)cc2)[nH]c1=O,>57,i
CN(C)c1ccc(CNC(=O)C2CCN(S(=O)(=O)c3ccc4c(c3)CCC(=O)N4)CC2)cc1,nt,i
O=c1cnc2cnc(Nc3ccccc3)nc2n1CCc1ccccc1,nt,i
O=C(N/N=C\c1ccccc1O)c1ccccc1O,nt,i
CC1CN(C(=O)C(C)Sc2nc3ccccc3s2)CC(C)O1 (centres undefined),>57,i
COc1cccc(NC(=O)CSc2nc3c(c(-c4ccco4)c2C#N)CCCC3)c1,>57,i

# 2 neighbouring compounds from above, for reference:
SMILES,PK Bst,TsaE inh
Cc1cc(NC(=O)c2ccccc2)ncc1NC(=O)c1ccco1,i,i
Cn1c(=O)c2c(nc(Oc3ccc4c(c3)OCO4)n2Cc2ccc(Br)cc2)n(C)c1=O,>26,nt

# More structures.
SMILES,PK Bst,TsaE inh
Cn1c(NC(=O)C2c3ccccc3Oc3ccccc32)cc(=O)n(C)c1=O,>57,i
CCOc1ccc(N2CC(C(=O)NCCCN3CCOCC3)CC2=O)cc1 (centres undefined),>57,i
Cc1nc(N)sc1-c1csc(Nc2ccccc2)n1,>11,i
CCCCC(CCC(=O)Nc1ccc(C(=O)OCC)cc1)C(=O)O (centres undefined),>26,nt
CC(=O)C(Sc1nc(N2CCOCC2)nc(N2CCOCC2)n1)C(=O)Nc1ccccc1 (centres undefined),>57,i
CC12CCC(c3c(C(=O)Nc4nccs4)nn(-c4ccccc4)c31)C2(C)C (centres undefined),>57,i
CCC(=O)Nc1ccc(NC(=O)CSc2nnnn2CC)cc1C,>57,i
O=C1CCCc2c1cc(C(=O)NCc1ccco1)c(=O)n2-c1ccc(Cl)cc1,>57,i
Cc1csc(NC(=O)CSc2nnc(-c3ccc(S(=O)(=O)N4CCCC4)cc3)o2)n1,>57,i
CCCCn1c(SCc2cccnc2)nc2c1c(=O)n(C)c(=O)n2C,>57,i
